# Bioassay records deposited in PubChem BioAssay by ICCB-Longwood Screening Facility, Harvard Medical School.
# BasE inh: inhibitors of Acinetobacter baumannii siderophore enzyme BasE; 84,000 tested, 0.1% active; AID 485350; inhibition, % (no concentration beside the values); purified BasE, fluorescence polarization binding displacement;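 active means both replicates above 25% with normal brightness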;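 further: 0% = negative plate control signal and 100% = positive plate control signal; stock transfer was 100 nL into about 30 µL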
# LANA-nucl inh: LANA-nucleosome interaction inhibition; z-score (test concentration not listed); 51,000 tested, 0.3% active; FITC-LANA1-23 / chicken nucleosome fluorescence polarization; hits give low values;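 active means both repeat wells score below -2 in polarization z-score versus plate sample wells, excluding overly bright wells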;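 further: 100 nL library stock added to about 30 µL; numbers are from one replicate; some results filed as inactive read as strong as hits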
#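 Assay system: FITC-LANA peptide and chicken nucleosomes; input: 240 nM purified chicken nucleosomes (480 nM peptide binding sites), final; also added: 50 nM FITC-LANA1-23 probe; medium: TEN-BT buffer, pH 7.5; doses: pin-transferred compound, 100 nL; times: 10–45 min, room temperature; technique: fluorescence polarization; replication: duplicates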
# Active calls of the source: *; · = no result given; & = joins results of further samples.
entry	structure	BasE inh	LANA-nucl inh
1	COc1ccc(-c2nc(CSCC(=O)NCc3ccc4c(c3)OCO4)c(C)o2)cc1	-1.0	0.569
2	Cc1ccc(-n2nnc(C(N)=O)c2N)cc1	1.5	-0.065
3	CC1CCN(C(=O)c2cccc(N3C(=O)C4C5C=CC(C5)C4C3=O)c2)CC1 (stereo unspecified)	2.3	-1.02
4	COc1ccc(CNC(=O)c2ccc(N3CC4CC(C3)c3cccc(=O)n3C4)c(N)c2)cc1 (stereo unspecified)	1.8	0.832
5	Fc1ccc(Nc2cccc3nonc23)cc1	-17.8	·
6	O=C(NC(=O)c1ccccc1Cl)c1ccccc1O	5.1	·
7	CCn1c(=O)c(C(=O)CN(C)Cc2ccc(F)cc2)c(N)n(Cc2ccccc2)c1=O	-4.6	·
8	CCOC(=O)c1ccc(Cl)c(NC(=S)N(C)C)c1	-0.8	·
9	CN(Cc1ccco1)C(=O)c1cc2c(s1)-c1ccccc1OC2	-0.4	-1.38
10	CCOC(=O)c1[nH]c(C)c(C(=O)OCC(=O)N2CCC(c3ccccc3)=N2)c1C	-2.9	·
11	Cc1ccccc1Nc1nc(N)nc(CSc2nc3ncc(Cl)cc3[nH]2)n1	-0.1	·
12	CC(C)(C)c1cn(-c2ccc(Cl)cc2)c(=S)[nH]1	1.9	0.092
13	COc1cccc(N2CCN(C(=O)c3cnc(N4CCCC4)nc3)CC2)c1	-1.8	1.33
14	O=C(NCCN1CCOCC1)c1cnn2c(C(F)F)cc(-c3ccccc3)nc12	-0.5	-0.646
15	CCN1CCN(C(=O)c2ccc(CNS(=O)(=O)c3cccc(OC)c3)cc2)CC1	-0.3	-0.0885
16	COc1cccc(Oc2ccc(OC)cc2C(=O)NN)c1	0.0	·
17	Cn1c(C(=O)NCCCN2CCCCC2)cc2sccc21	-0.7	-0.471
18	O=C(CSc1ccc(-c2ccc(F)cc2)nn1)N1CCOCC1	-1.5	0.052
19	O=C(Cn1ccc(=O)[nH]c1=O)NCc1ccc(Cl)cc1	-2.4	·
20	CC1(C)CC(NC(=O)/C=C/c2ccccc2)CC(C)(C)N1	-2.2	0.248
21	COc1cccc(NC(=O)NCCc2nnc(SC)n2C)c1	-0.1	-0.052
22	Cc1ccc(CN(C)C(=O)Cc2csc(-c3ccccc3)n2)o1	-5.1	·
23	CC(=O)NC1C(OC2CCCCC2)OC(CO)C(O)C1O (stereo unspecified)	1.4	-0.0275
24	OC1CCNC(=S)N1c1ccccc1 (stereo unspecified)	1.4	0.14
25	CCc1cccc(C)c1NC(=O)N(C)C1CCCCC1	3.6	-0.046
26	Cc1nc(SCC(=O)NC(N)=O)c2c(-c3cccs3)csc2n1	2.3	·
27	O=C(Oc1cccc2cccnc12)c1ccccc1	1.8	-0.04&1.74
28	CN1CCN(C(=O)C2CCCN(S(=O)(=O)N3CCCCC3)C2)CC1 (stereo unspecified)	-2.3	3.09
29	CC1CCC2(CC1)NC(=O)N(NC(=O)CN1CCN(Cc3nc4ccccc4s3)CC1)C2=O (stereo unspecified)	-6.1	·
30	CCN(CC)CCn1c(NC(=O)c2cc3c(s2)CCCC3)nc2ccccc21	1.1	·
31	Cc1cccc(CN2C(=O)/C(=C\c3ccc(C(=O)N4CCN(C)CC4)cc3)Oc3ccccc32)c1	-0.8	0.926
32	CN1CCCCC1CCN1c2ccccc2Sc2ccc(S(C)=O)cc21 (stereo unspecified)	0.9	-0.993&0.607&-0.439
33	C=CCNC(=S)/N=c1\sccn1C	0.6	-0.013
34	O=c1[nH]cnc2ccccc12	2.6	·
35	c1ccc(CN2CCN(c3ncnc4c3cnn4-c3ccccc3)CC2)cc1	0.9	-0.322
36	COc1cc(SC)ccc1C(=O)OCC(=O)N(C1CCCCC1)C1CCS(=O)(=O)C1 (stereo unspecified)	1.0	·
37	Cc1c(/C=N/NC(=O)COc2ccc(-c3ccccc3)cc2)cc(C#N)n1C	-0.4	·
38	CC(C)NC(=S)NCc1cnn(C)c1	1.7	-0.259
39	Cc1cc(C)cc(CC(C(=O)O)C(C)C(=O)NCc2ccccc2)c1 (stereo unspecified)	1.1	·
40	Cc1ccc(N=Cc2ccco2)c(C)c1	-3.7	-1.11
41	COC(=O)c1ccc(COc2ccccc2/C=N/O)o1	0.1	-0.288
42	CCOC(=O)c1cc(-c2ccccc2)[nH]c1N1CCCC1	·	-0.007
43	Clc1ccccc1CSc1nnc(COc2ccccc2)n1Cc1ccco1	2.0	·
44	O=C(CN1CCc2ccccc2C1)NCCCc1ccccc1	-5.7	·
45	Cc1cccc(-c2nnc(SCC(N)=O)n2C2CCCCC2C)c1 (stereo unspecified)	0.1	·
46	N#Cc1c(N)nc2c(c1-c1ccccc1Cl)CCC2	3.1	-0.49
47	COc1cccc(NS(=O)(=O)c2csc(C(N)=O)c2)c1	-1.7	-0.635
48	O=c1oc2ccccc2n1CCc1nc(-c2ccc(C(F)(F)F)cc2)no1	-0.6	0.31
49	O=C(O)COc1ccc(CN2CCCC2)cc1	-0.1	0.199
50	O=C(OCCCn1c(=O)[nH]c2ccccc21)c1ccc2c(c1)C(=O)N(Cc1ccco1)C2=O	1.4	·
51	COc1ccc(CN2CCCCC2CO)cc1Br (stereo unspecified)	-2.5	-1.67
52	N#CS/C=C/C(=O)c1ccccc1	2.2	-0.836
53	CCN(CC)c1ccc(C=C2C(=O)OC3(CCCC3)OC2=O)cc1	-4.2	2.78
54	CNC(=O)COC(=O)c1cccnc1Nc1ccccc1F	-0.8	·
55	COc1cccc(/C=C2\C(=O)NC(=O)N(c3cccc(OC)c3)C2=O)c1	-0.4	·
56	OC(c1ccccc1)(c1ccccc1)C1CCN(C(=S)Nc2ccccc2)CC1	2.7	·
57	COc1cccc(/C=C2\N=C(c3c(-c4ccccc4)noc3C)OC2=O)c1	3.0	-0.043
58	COCCn1c(CCC(=O)NCc2ccc(C)cc2)nc2cccnc21	-0.1	0.157
59	c1ccc(CNc2ccc(N3CCCCC3)nn2)cc1	0.6	-1.1
60	CC(C)N(Cc1nnc(-c2ccccc2Cl)o1)C(=O)C1=CC=CN2CCS(=O)(=O)N=C12	0.8	·

# Next records follow.
entry	structure	BasE inh	LANA-nucl inh
61	O=C(Cn1ncc(Cl)c(Cl)c1=O)NCC1CCCO1 (stereo unspecified)	5.5	·
62	C=CCn1c(NS(=O)(=O)c2ccccc2)c(C#N)c2nc3ccccc3nc21	-2.3	·
63	CCN1CCN(C(=O)c2cccc(OC(F)F)c2)CC1	0.2	·
64	Cc1ccc(C=N/C(=N\NC(=O)c2ccccc2)c2ccccc2)o1	4.5	-0.641
65	CCOc1ccc(NC(=S)NCCCO)cc1	1.9	-0.787
66	CN(C(=O)c1ccc(Br)cc1)C1CCCCC1	0.4	-1.52
67	CCCc1nc(SCC(=O)N(CC)CC)c2ccccc2n1	0.7	0.159
68	COc1ccc(CCC(=O)Nc2ccc3nc(N4CCN(c5ncccn5)CC4)cc(C)c3c2)cc1	-0.3	0.418
69	CCCNC(=O)c1cc(Cl)c2c(c1)OCO2	2.7	·
70	NC(=S)Nc1cccc(C(F)(F)F)c1	3.3	·
71	O=C(/C=C/c1nc2ccccc2o1)N1CCN(Cc2nc3ccccc3s2)CC1	0.2	·
72	CCOC(=O)Cn1c(=NC(=O)CN2C(=O)CCC2=O)sc2cc(S(N)(=O)=O)ccc21	-3.2	0.0225
73	O=C(O)CCSc1nnc(-c2ccncc2)n1-c1ccccc1	-1.0	0.757
74	Cc1ccc2c(ccn3cc4c(c(=O)n(C)c(=O)n4C)c23)c1	2.9	-0.876
75	CCN(CC)S(=O)(=O)c1ccc(NCC(=O)Nc2ccc(S(=O)(=O)N(C)C)cc2)cc1	0.9	·
76	O=c1[nH]c(=O)c2nc3cc(C(F)(F)F)ccc3nc2[nH]1	13.3	-2.92*
77	CN1C(=O)/C(=N\N=c2\sc3ccccc3n2C)c2ccccc21	4.6	·
78	CC(C(=O)Nc1ccc(C#N)cc1)N1CCN(S(=O)(=O)/C=C/c2ccccc2)CC1 (stereo unspecified)	0.7	·
79	O=C(Nc1ccc(Cl)cc1)Nc1ccc(N2CCN(c3ncccc3C(F)(F)F)CC2)nc1	-3.0	·
80	NC(=O)c1ccsc1NC(=O)CSc1ncnc2sc3c(c12)CCCC3	-0.7	·
81	O=C(c1ccco1)N1CCN(c2c3c(nc4cc(-c5cccc(F)c5)nn24)CCCC3)CC1	0.3	0.465
82	N#Cc1nc(-c2ccccc2F)oc1NC1CC1	-0.2	-1.13
83	Cc1cc2oc(=O)cc(C)c2c(=O)[nH]1	1.5	·
84	c1ccc2c(c1)CCCC2Nc1ncnc2c1nc1n2CCCCC1 (stereo unspecified)	0.3	0.398
85	O=C(/C=C/c1ccco1)OCC(=O)c1cc2c3c(c1)CC(=O)N3CCC2	-5.7	·
86	CC(C(=O)Nc1ccccc1)n1nc(-c2ccccc2)ccc1=O (stereo unspecified)	-2.9	0.764
87	CCCn1c(C)cc(C(=O)COC(=O)c2ccc(C#N)cc2)c1C	-1.0	·
88	CC(Sc1nc2ncccc2[nH]1)C(=O)Nc1ccc(F)cc1 (stereo unspecified)	3.5	-0.601
89	NC(=O)CN1CCC(N2CCCCC2)CC1	0.8	-0.822
90	COc1cccc(/C=N/NC(=O)Cc2ccccc2)c1	0.0	-0.333
91	S=C(NCc1ccccc1)NCC(c1cccnc1)N1CCOCC1 (stereo unspecified)	0.7	-0.855
92	Cc1c(C#N)c(NC(=O)CN(C)CC(=O)Nc2ccc(F)c(F)c2F)n(Cc2ccco2)c1C	1.5	·
93	CNC(=O)CNC(=O)c1ccccc1	2.4	·
94	O=C(CNC(=O)OCc1ccccc1)ON1C(=O)CCC1=O	0.4	·
95	COc1ccc(C(=O)c2ccccc2)cc1	-2.8	·
96	O=C(CSc1nnc(-c2cccnc2)o1)OC1CCCCC1	2.6	0.264
97	Cc1cc(-c2ccc(Cl)s2)nc(-n2cccc2)n1	·	-1.12
98	Nc1ccn([C@H]2CC[C@@H](CO)O2)c(=O)n1	-1.3	-0.054&-0.232&0.145
99	COC(=O)CCn1nc(-c2ccc(C)cc2)c2ccccc2c1=O	2.5	·
100	O=C(CCCn1c(=O)oc2ccccc21)N1CCN(S(=O)(=O)c2ccc3c(c2)CCC3)CC1	0.1	·
101	O=C(Cc1ccccc1)NCCO	·	-1.04
102	COC(=O)c1ccccc1NC(=O)c1c(Cl)nc2sccn12	2.9	·
103	CC(Sc1nc(-c2ccccc2)cc(C(F)(F)F)n1)C(=O)NN1CCCCC1 (stereo unspecified)	-1.9	0.574
104	CCC(Sc1nc2sc(C(=O)OC)c(C)c2c(=O)n1N)C(=O)N(CC)CC (stereo unspecified)	1.8	-0.487
105	Clc1cc2nsnc2cc1Cl	2.6	-0.497
106	CNC(C)c1ccc(OC)c(OC)c1 (stereo unspecified)	1.0	0.0095
107	C=CCc1cccc(/C=C(/C#N)C(N)=O)c1O	0.4	0.446
108	FC(F)(F)C(Cl)Br (stereo unspecified)	·	0.141
109	N/C(=N/c1nc(CSc2ccc(Cl)cc2)cc(=O)[nH]1)Nc1ccc(F)cc1	3.8	-0.965
110	CC(C(=O)NCc1ccco1)N1CCN(C)CC1 (stereo unspecified)	-0.5	-1.79
111	Cc1ccc(C(=O)C(OC(=O)c2c(C)cc(=O)oc2C)c2ccccc2)cc1 (stereo unspecified)	-2.5	·
112	CN(C)S(=O)(=O)c1cccc(C(=O)OCC(=O)NC2CC2)c1	3.9	·
113	CC(C)OC(=O)CC12CN3CC(CC(=O)OC(C)C)(CN(C1)C(=O)c1ccccc1C3=O)C2=O	0.1	-0.672
114	CC1=C(C(=O)Nc2ccccn2)C(c2ccsc2)C2=C(CC(c3ccco3)CC2=O)N1 (stereo unspecified)	1.2	1.12
115	O=C(NCC(O)c1ccccc1)Nc1ccc(F)cc1 (stereo unspecified)	0.3	-0.87
116	CC1(C)CC(C(N)=O)C(C)(C)N1 (stereo unspecified)	5.2	-0.683
117	CCOC(=O)Cc1nc(-c2ccncc2)n[nH]1	1.5	0.044
118	FC(F)(F)c1ccc(Cl)c(Nc2ncnc(-n3cccc3)n2)c1	1.9	·
119	Cc1ccc(-n2c(COc3cccc(C)c3)n[nH]c2=S)cc1	-0.4	-0.718
120	CN(C)C(=O)c1nn(-c2ccc(Cl)cc2)c(=O)c2ccccc12	-2.8	1.75

# Further structures follow:
entry	structure	BasE inh	LANA-nucl inh
121	CCCC(=O)Nc1nc2ccc(N)cc2s1	3.2	-0.661
122	CCN=C1S/C(=C2\C(=O)N(C)c3ccccc32)C(=O)N1CC	-0.8	0.901
123	COC(=O)COC(=O)c1ccc2[nH]c(=O)c(=O)[nH]c2c1	-0.4	·
124	O=C(CNS(=O)(=O)c1ccccc1)N1CCCC1	2.8	0.506
125	CCC(CO)n1c(SCc2cc(=O)oc3cc(C)ccc23)nc2ccccc2c1=O (stereo unspecified)	1.4	·
126	Cc1nc2c(-c3ccccc3)c(C)nn2c(C)c1CC(=O)NN1CCOCC1	2.0	-0.772

# A portion of the library (hit frequency here may not be typical).
